High-throughput results (PubChem)
Arbovirus inh: blocks arbovirus infection. arbovirus infection cell-based antiviral screen. inhibition, % at 10 µM. 200,000 compounds, 0.37% hits;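 active means inhibition from about 30%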;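 further: bluetongue infection of BSR cells; cell survival read as ATP light after 72 h; 0% = infected wells without compound and 100% = uninfected wells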
Mtb H37Rv: M. tuberculosis H37Rv growth inhibitors, H37Rv strain (AID 1626); M. tuberculosis H37Rv growth inhibition; higher % means a stronger effect; inhibition, % at 10 µM; hits with a dose series show IC50 in µM; 220,000 compounds, 0.95% hits;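 active means confirmed in a dose series; inconclusive means inhibition above 80% but not taken into the dose series; inactive means below 80% or under 30% at every dose of the series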;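 further: bacteria incubated seven days before Alamar blue readout; 0% = bacteria only wells and 100% = bacteria with antibiotic wells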
YopH PTP inh: blocks Yersinia enterocolitica YopH tyrosine phosphatase; fluorescence Ex485/Em525; inhibition, %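 (about 10 µM by stock and volumes)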; 140,000 compounds, 0.16% hits; AID 898;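 active means inhibition of 50% or more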;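 further: controls were vehicle for no effect and minimum signal wells for full effect; inactives centre near -20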
Mtb betalactam: beta-lactam sensitization of Mtb H37Rv. M. tuberculosis H37Rv growth with meropenem, percent inhibition; hits of this screen are not shown here. inhibition, % at 25 µM. 330,000 compounds, 0.27% hits. AID 434955;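 active means about 74% or more and at least 40 points above the plate without the antibiotic, then above 30% in a dose series; inconclusive means first-round hits that could not be retested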;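 further: growth measured after seven days incubation then overnight dye step; 0% = bacteria only wells and 100% = bacteria with antibiotic; twin plates without the antibiotic show which effects depend on it; some results filed as inactive read as strong as hits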
RecA splice inh: Mtb RecA intein splicing inhibition; P9WHJ3; cell-free RecA intein splicing, fluorescence; inhibition, %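 (about 9 µM by stock and volumes)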; 290,000 compounds, 0.75% hits; AID 2221; in the data active means inhibition above about 30%; inconclusive means no clear call, values can overlap the other calls;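 further: 0% = vehicle wells and 100% = reference inhibitor control wells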
Target sequence (P9WHJ3 whole entry, looked up, canonical isoform): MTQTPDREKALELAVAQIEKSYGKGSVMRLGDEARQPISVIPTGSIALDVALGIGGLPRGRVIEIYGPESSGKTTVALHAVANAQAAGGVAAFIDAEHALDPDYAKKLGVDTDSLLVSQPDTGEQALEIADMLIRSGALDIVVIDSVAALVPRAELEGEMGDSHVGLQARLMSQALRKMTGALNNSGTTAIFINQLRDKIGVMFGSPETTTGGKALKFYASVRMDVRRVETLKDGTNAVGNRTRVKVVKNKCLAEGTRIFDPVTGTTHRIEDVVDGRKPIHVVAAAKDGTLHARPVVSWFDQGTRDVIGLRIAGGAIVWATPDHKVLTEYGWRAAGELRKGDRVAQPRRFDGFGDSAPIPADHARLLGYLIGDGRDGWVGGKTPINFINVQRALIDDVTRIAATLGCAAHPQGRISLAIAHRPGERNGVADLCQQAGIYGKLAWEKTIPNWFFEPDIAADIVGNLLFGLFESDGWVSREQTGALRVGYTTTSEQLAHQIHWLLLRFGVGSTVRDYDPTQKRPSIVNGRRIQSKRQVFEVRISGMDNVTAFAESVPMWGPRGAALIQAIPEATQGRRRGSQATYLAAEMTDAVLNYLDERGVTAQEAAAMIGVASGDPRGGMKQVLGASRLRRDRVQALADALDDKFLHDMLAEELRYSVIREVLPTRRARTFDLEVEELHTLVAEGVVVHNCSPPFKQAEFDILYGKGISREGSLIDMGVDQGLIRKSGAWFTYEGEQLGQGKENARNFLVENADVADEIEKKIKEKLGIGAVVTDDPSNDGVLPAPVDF
Arbovirus inh repeat: recorded beside Arbovirus inh, whose call it bears; inhibition, %; measured here: 10K subset replicate screen; many hits read low in the repeat;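 first of two repeat runs on a subset; 0% = infected and 100% = uninfected wells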
The depositor's hits bear a star; ? = inconclusive; · = no result given.

SMILES | Arbovirus inh | Mtb H37Rv | YopH PTP inh | Mtb betalactam | RecA splice inh | others
Cc1ccc(S(=O)(=O)CCC(=O)OC(C)C(=O)N2CCc3ccccc32)cc1 (centres undefined) | · | · | · | 1 | -2.2
CCOc1ccc(-c2cc(C(=O)NN)[nH]n2)cc1 | 0 | · | -17 | 2 | -0.3
CCn1cc(C(=O)NCC(C)C)c(=O)c2cc(F)c(N3CCN(C)CC3)cc21 | · | -6% | · | 3 | 0.2
Oc1ccc(/C=N/Nc2nccnc2Cl)c(O)c1 | -32 | -2% | -22 | 0 | 21
CC(C)(C)N1CC(c2nc3ccccc3n2CCOc2ccccc2)CC1=O (centres undefined) | -14 | -11% | -7 | 3 | 2.2
O=C1NC(=O)C(CCc2ccncc2)(Cc2ccc(OCc3ccccc3)cc2)C(=O)N1 | · | 1% | · | -10 | 0.0
CCc1ccc(NC(=S)NCC2CCCN2CC)cc1 (centres undefined) | 0 | 5% | · | -5 | 8.1
COc1cccc2cc(C(=O)N3CCN(c4ncccn4)CC3)c(=O)oc12 | 3 | -1% | -5 | · | -1.3
COc1cccc(CNC(=O)C(=O)NCCC2CCCCN2S(=O)(=O)c2ccccc2)c1 (centres undefined) | · | · | · | -8 | -2.4
COc1ccc(NC(=O)c2ccc(CN3CCN(c4ccccc4)CC3)cc2)cc1 | 9 | 9% | -36 | -9 | -1.5 | Arbovirus inh repeat=-6
CCCCNc1nc(=S)[nH]c2cc(OC)c(OC)cc12 | 0 | 4% | -5 | 3 | 2.7
O=C1CSC(c2ccc(F)cc2)N1c1nc2ccccc2s1 (centres undefined) | 1 | 13% | -26 | 6 | -1.2
COc1ccc(CCNC(=O)C(=O)NCc2ccc(C)cc2)cc1OC | -2 | 0% | -29 | 1 | 0.0
COc1ccc(-c2csc(Nc3ccccc3)[n+]2Cc2ccccc2)cc1 | 9 | 4% | · | -9 | 0.8
COc1ccc(CNC(=O)C2CCCN(c3nn4c(=O)cc(C)nc4s3)C2)cc1 (centres undefined) | · | · | · | 2 | -1.9
CCc1nnc(NC(=O)C2CCN(S(=O)(=O)Cc3ccccc3)CC2)s1 | 6 | · | 16 | -8 | ·
COCCn1c(=S)[nH]c2cc(C(=O)N(CCO)Cc3ccccc3)ccc2c1=O | · | · | · | -5 | -0.1
Cc1cc(C)cc(Oc2nc(C(F)(F)F)nc3ccccc23)c1 | -14 | 3% | -9 | -2 | -1.5
O=C(Nc1ccccc1-c1ccccc1)C1CCCN(c2ncccn2)C1 (centres undefined) | -16 | 0% | -47 | -6 | -1.5
COC(=O)c1ccc(N2C(=O)CC(N(C)CCc3ccc(OC)c(OC)c3)C2=O)cc1 (centres undefined) | -3 | -10% | -35 | -19 | 0.3
COc1cccc(/C=N/n2c(SC)nnc2-c2ccccc2)c1O | -1 | -3% | -30 | 42 | 1.4
Cc1ccccc1NC(=S)N(Cc1ccccn1)Cc1ccccc1Cl | 11 | 10% | · | -5 | 6.8
Cn1c(O)c(/C=C2\N=c3ccccc3=C2CCNC(=S)NC2CC2)c(=O)n(C)c1=O | · | 7% | · | -2 | -1.2
O=C(CN(Cc1ccco1)C(=O)c1ccccc1)Nc1ccc(Cl)c(Cl)c1 | -13 | 1% | -31 | 5 | 6.4
O=C1CCC(=O)N1CC(=O)N1c2ccccc2Sc2ccccc21 | 2 | 0% | 54* | 5 | -0.8

Of the compounds above, these have an aryl methoxy group.
SMILES | Arbovirus inh | Mtb H37Rv | YopH PTP inh | Mtb betalactam | RecA splice inh | others
COc1cccc2cc(C(=O)N3CCN(c4ncccn4)CC3)c(=O)oc12 | 3 | -1% | -5 | · | -1.3
COc1cccc(CNC(=O)C(=O)NCCC2CCCCN2S(=O)(=O)c2ccccc2)c1 (centres undefined) | · | · | · | -8 | -2.4
COc1ccc(NC(=O)c2ccc(CN3CCN(c4ccccc4)CC3)cc2)cc1 | 9 | 9% | -36 | -9 | -1.5 | Arbovirus inh repeat=-6
CCCCNc1nc(=S)[nH]c2cc(OC)c(OC)cc12 | 0 | 4% | -5 | 3 | 2.7
COc1ccc(CCNC(=O)C(=O)NCc2ccc(C)cc2)cc1OC | -2 | 0% | -29 | 1 | 0.0
COc1ccc(-c2csc(Nc3ccccc3)[n+]2Cc2ccccc2)cc1 | 9 | 4% | · | -9 | 0.8
COc1ccc(CNC(=O)C2CCCN(c3nn4c(=O)cc(C)nc4s3)C2)cc1 (centres undefined) | · | · | · | 2 | -1.9
COC(=O)c1ccc(N2C(=O)CC(N(C)CCc3ccc(OC)c(OC)c3)C2=O)cc1 (centres undefined) | -3 | -10% | -35 | -19 | 0.3
COc1cccc(/C=N/n2c(SC)nnc2-c2ccccc2)c1O | -1 | -3% | -30 | 42 | 1.4

The listing continues.
SMILES | Arbovirus inh | Mtb H37Rv | YopH PTP inh | Mtb betalactam | RecA splice inh | others
CCOc1ccc(N2CC(C(=O)Nc3ccc(S(=O)(=O)N4CCCCC4)cc3)CC2=O)cc1 (centres undefined) | · | · | · | 5 | 1.5
CCN(CC)C(=O)c1ccc(Nc2nnc(-c3ccc(O)cc3)c3ccccc23)cc1 | · | · | · | -12 | 3.5
Cn1nccc1C(=O)N/N=C/c1c(O)ccc2ccccc12 | · | · | · | 2 | -67
Cc1ccc(CCNC(=O)C2CCCN(S(=O)(=O)c3c(C)noc3/C=C/N(C)C)C2)cc1 (centres undefined) | -3 | 0% | -51 | -8 | · | Arbovirus inh repeat=-9
Cc1cnn(-c2cc(N/N=C/c3ccccc3Cl)ncn2)c1 | -4 | -2% | -32 | -8 | -1.8
COc1ccc(S(=O)(=O)Nc2c(C)cc(C)cc2C)c2cccnc12 | · | · | · | -7 | 1.3
O=C(Cc1ccccc1)NC(c1ccco1)c1c(O)ccc2ccccc12 (centres undefined) | 8 | 3% | · | 7 | 3.4
COc1cc(-n2c(=O)c3ccccc3n(Cc3cccc(C)c3)c2=O)cc(OC)c1OC | -4 | 3% | · | -7 | 3.6
COc1ccc(S(=O)(=O)N2CCCCC2)cc1NC(=O)Cc1c[nH]c2ccccc12 | -7 | 1% | -6 | -4 | 8.4
COCCNC(=O)CN1C(=O)C(C)N=C(c2ccccc2)c2cc(Cl)ccc21 (centres undefined) | · | · | · | 8 | 3.9
O=C(COc1ccc(Cl)cc1Cl)NCCCn1ccnc1 | -7 | -14% | -46 | -5 | 7.9
Cc1nn(-c2ccccc2)c(C)c1/C=C/C(=O)OCC(=O)Nc1ncc(Cl)cc1Cl | 1 | -3% | -34 | -1 | 4.5
CC1(C)CC(=O)C(C=Nc2cc(C(=O)c3ccccc3)ccc2N)=C(O)C1 | -6 | 96% | · | -2 | -3.8
O=[N+]([O-])c1cc(C(F)(F)F)ccc1N1CCCC(O)C1 (centres undefined) | 1 | 8% | · | 4 | -1.1
Cc1cc(OCc2cc(C(=O)NCC3(C)COC3)no2)cc(C)c1Cl | · | · | · | 5 | -0.3
Cc1ccc(Nc2nnc(C)c(=O)[nH]2)cc1 | 3 | 1% | · | -7 | 2.4
COc1cc(C(=O)Nc2ccccc2SCc2cc(=O)n3nc(C)sc3n2)cc(OC)c1OC | · | · | · | -6 | 2.8
CCCCn1c(N)c(N(CC(C)C)C(=O)c2cccc(S(=O)(=O)N3CC(C)OC(C)C3)c2)c(=O)[nH]c1=O (centres undefined) | · | · | · | 0 | -1.6
Cc1cc(C)n(C(=O)c2ccc(Cn3nc(C)c(Br)c3C)o2)n1 | -5 | -9% | -20 | -25 | 4.0
O=C(CCc1nnc2n(Cc3ccccc3Cl)c(=O)c3ccccc3n12)NCCCN1CCOCC1 | · | · | · | 1 | -8.5
COC(=O)C1C(=O)CC(C)(O)C(C(=O)OC)C1/C=C/c1ccccc1 (centres undefined) | -3 | 0% | -39 | -12 | 1.1
COc1ccc2cc(C(=O)/C=C/c3cc(OC)c(O)c(OC)c3)ccc2c1 | · | · | · | 31 | -1.0
c1ccc2[nH]c(-c3nc4ccccc4[nH]3)nc2c1 | -5 | -3% | -33 | -4 | -3.4
CCCCN1C(=O)c2ccc(C(=O)NC3=NCCS3)cc2C1=O | 0 | 64% | -2 | 73 | 6.7
CC1CCN(C2CCN(C(=O)c3ccccc3F)CC2)CC1 | · | -11% | · | -2 | 1.8

Other records
SMILES | Arbovirus inh | Mtb H37Rv | YopH PTP inh | Mtb betalactam | RecA splice inh | others
COc1ccc2nc(C)cc(SCC(=O)NNC(=O)COc3ccccc3)c2c1 | 5 | · | -2 | 4 | -3.4
COc1cccc(NC(=O)C(=O)c2cn(CC(=O)N3CCCC3)c3ccccc23)c1 | · | · | · | 2 | 3.2
Cc1cccc(C)c1OCC(=O)N/N=C/c1cccnc1 | · | · | · | -11 | 0.4
S=C(NCCc1ccccc1)N/N=C/c1cccs1 | · | · | · | 93 | -2.9
C(=N\N1CCN(Cc2ccccc2)CC1)/c1ccc(-c2ccccc2)cc1 | -10 | 7% | · | 10 | 9.6
C[n+]1ccccc1/C=C/c1cc(Br)ccc1O | · | · | · | 2 | 1.8
O=C(c1ccc(N2C(=O)C3C4c5ccccc5C(c5ccccc54)C3C2=O)cc1)N1CCOCC1 (centres undefined) | 2 | -4% | -30 | -1 | 2.5
Cc1ccc(C)c(N2CCN(S(=O)(=O)c3ccc4[nH]c(=O)c(=O)[nH]c4c3)CC2)c1 | 0 | -6% | -45 | -8 | 3.6
COc1ccc(CN2CCN(C(C)C(=O)N(C)Cc3cccc(F)c3)CC2)cc1OC (centres undefined) | · | · | · | 3 | -1.0
CCN(CC)S(=O)(=O)c1ccc(NC(=O)COc2c(OC)cccc2OC)cc1 | 0 | -8% | -43 | 2 | -1.1
Cc1sc2ccc3sccc3c2[n+]1C | -4 | · | · | -5 | 0.1
COc1ccc(CC(=O)Nc2ccc(C(C)=O)cc2)cc1 | 8 | -4% | · | -9 | -0.6
N#C/C(=C/c1ccc(N2CCOCC2)o1)c1ccc(Cl)cc1 | -8 | · | -24 | 72 | -11
COc1ccccc1/C=C1\SC(=S)N(CCC(=O)N2CCN(C)CC2)C1=O | · | · | · | 1 | 5.7
O=C(NCC(c1ccco1)N1CCN(c2ccccc2F)CC1)C(=O)NC1CC1 (centres undefined) | · | · | · | -12 | 2.4
CCOC(=O)N1CCN(C(=O)CCSCCc2ccncc2)CC1 | 17 | -13% | 10 | -10 | 0.5
CN(C(=O)CSc1nc2cc([N+](=O)[O-])ccc2n1-c1ccc(F)cc1)C1CCS(=O)(=O)C1 (centres undefined) | -12 | 1% | -21 | -1 | 4.8
COc1ccc2c(c1)CCc1c(C(=O)Nc3ccn(Cc4ccc(C)cc4)n3)noc1-2 | 2 | -1% | -43 | ? | 1.8
COc1ccc(-c2csc(NC(=O)Cn3nc(C)cc3C)n2)cc1 | 2 | -9% | -19 | 60 | -2.8
O=C(Nc1ccc(Cc2ccncc2)cc1)C1CCC(N2C(=O)C3CC=CCC3C2=O)CC1 (centres undefined) | -6 | 1% | 0 | 9 | -2.0
Cc1cccc(NC(=S)NC(=O)CC2CC(C)(C)OC2=O)c1 (centres undefined) | 17 | 5% | · | 3 | -0.8
CCN(CC)CCN(C(=O)c1ccc(S(=O)(=O)N(C)C2CCCCC2)cc1)c1nc2ccc(OC)cc2s1 | · | · | · | ? | -0.3
O=C(O)/C=C\c1ccccc1Oc1cccc(Cl)c1 | 7 | -10% | · | -4 | -8.7
CN(Cc1ccccn1)C(=O)CC1C(=O)NCCN1Cc1cccc(Oc2ccccc2)c1 (centres undefined) | -4 | 2% | · | 0 | ·
CCOc1ccc(NC(=O)CSc2nnc(Cn3cnc([N+](=O)[O-])n3)n2CC)cc1 | -6 | -5% | · | -3 | -1.4

Continued.
SMILES | Arbovirus inh | Mtb H37Rv | YopH PTP inh | Mtb betalactam | RecA splice inh | others
COC(=O)C1CCN(S(=O)(=O)CCNC(=O)c2cccc(OC)c2)CC1 | · | · | · | -12 | 0.9
Cc1cc2c(cc1S(=O)(=O)NCc1ccc(Cl)cc1)OCC(=O)N2 | · | · | · | -7 | -0.5
CC(C)OC(=O)c1nnn(-c2nonc2N)c1CN1CCc2ccccc2C1 | 6 | 0% | -55 | · | ·
NS(=O)(=O)c1ccc(-n2cccc2C=O)cc1 | 5 | 1% | · | 3 | 0.7
O=C(NCc1ccccc1Cl)c1cnc2ccccc2n1 | · | · | · | 9 | 8.0
COc1cccc(CN2CCN(C(=O)Cc3ccccc3OC)CC2)c1 | · | · | · | -3 | -0.8
Nc1ncc(-n2cncn2)c(-c2ccccc2)n1 | 19 | -7% | · | 1 | -2.0
CCOc1ccc(NC(=S)NCCCn2ccnc2)cc1 | 9 | -7% | -25 | -4 | 0.4
O=C(O)CCN1C(=O)/C(=C\c2cccc(OCC(=O)Nc3ccc(Cl)cc3)c2)SC1=S | · | -5% | · | -4 | 13
CC(C)C(=O)Nc1nnc(Sc2ccc(N(C)C)cc2)s1 | -10 | -4% | -4 | 0 | -3.2

The list is partial, so the mix of outcomes need not match the whole.
